# Assay outcomes from PubChem.
# Vaccinia mCherry – vaccinia inhibition (mCherry reporter). Vaccinia virus mCherry reporter infection, fluorescence; about a quarter of the inactives have no number. Potency, µM (doses to about 36.5 µM), inactives show top-dose activity change, negative = inhibition, usual class: inhibitors. 0.63% of 310,000 active; active = well fitted inhibition curve with a large enough effect; inconclusive = small, poorly fitted or top-dose-only effect; inactive = no such curve, though single readings can be large or run the other way; tested in A549 cells; note: nearly all actives have a fitted effect of over 35% in size; inactives centre near -10
# VACV Venus inh – inhibitors of vaccinia virus (Venus reporter); 0.46% of 330,000 active; Potency, µM (titrated, usually from 36.5 µM), inactives show at the highest dose activity change, negative = inhibition, most hits filed as inhibitors; Vaccinia virus Venus reporter expression, fluorescence; active means well fitted inhibition curve with a large enough effect; inconclusive means small, poorly fitted or top-dose-only effect; inactive means no such curve, though single readings can be large or run the other way; tested in A549 cells; note: nearly all actives have a fitted effect of over 30% in size; inactives centre near -10
# Starred values were filed as active, the others as inactive; i = inactive; ? = inconclusive; nt = no result given; & = joins results of further samples; [ ] = dose if it differs, or a comment. % is set by controls: 0 for no effect and ±100 for the full control effect; potency is the fitted concentration of half-maximal effect.
item | Molecule | VACV Venus inh | Vaccinia mCherry
1 | COc1ccc(CNC(=O)CCc2nc3cccnc3n2Cc2ccc(OC)cc2)cc1 | -9% | -3%
2 | COc1ccc(-n2ccnc2SCC(=O)NO)cc1 | -4% | -18%
3 | CCCC(=O)Nc1cc(C(=O)O)ccc1Sc1ccccc1 | -5% | -6%
4 | CN(CC(=O)Nc1ccccc1C(F)(F)F)C(=O)CSCc1ccc(Cl)c(Cl)c1 | -10% | -19%
5 | CCCCn1nnnc1C(c1cccc(OC)c1OC)N1CCC2(CC1)C(=O)NCN2c1ccccc1 (stereo not given) | -12% | i
6 | Cc1sc2ncnc(SCC(=O)NC(=O)NCc3ccco3)c2c1C | -11% | -9%
7 | O=C(O)CC(=O)Nc1ccccc1 | 0% | -4%
8 | O=c1[nH]cnc2c1nnn2Cc1ccccc1 | -6% | -5%
9 | Nc1c(C(=O)O)cnn1-c1ccc([N+](=O)[O-])cc1 | -14%[7.34 µM] | i[7.34 µM]
10 | CC1Cc2ccccc2N1C(=O)CSc1ccccn1 (stereo not given) | -4% | i
11 | CC1CC(C)(C)NC(=S)N1CC(=O)N1CCN(Cc2ccc3c(c2)OCO3)CC1 (stereo not given) | -3% | 4%
12 | COc1ccc(-c2c(C)nn3c(N4CCOCC4)cc(C)nc23)cc1OC | -21% | -27%
13 | O=C(Nc1ccc(N2CCCCC2)c(Cl)c1)c1ccc2c(c1)OCCO2 | ? | -17%
14 | CSc1ncccc1C(=O)NNC(=O)c1ccc(NS(=O)(=O)c2cccs2)cc1 | -15% | i
15 | C=C(C)Cn1c(-c2ccncc2)n[nH]c1=S | -9% | -12%
16 | COc1ccc(C(=O)O/N=C(\N)c2ccccc2Cl)cc1OC | -14% | i
17 | CC(C)c1ccc(NC(=O)CSc2nc3ccsc3c(=O)n2CCC(=O)O)cc1 | -19% | i
18 | O=C(NCc1ccccc1)c1cc[n+](Cc2ccccc2)cc1 | -11% | i
19 | O=C(NCc1ccccn1)[C@@H]1CCCN1C(=O)[C@@H]1CCCN1C(=O)c1cccs1 | 0% | 33%[activator]
20 | COc1ccc(NC(=O)C2=CC(c3ccc4c(c3)OCO4)=NS(=O)(=O)N2C)cc1 | 2% | -1%
21 | Cc1nn(CCCC(=O)NCc2ccccc2)c(=O)c2cc3sccc3n12 | -22% | -20%
22 | C/C(CC1CC2=C(CC1(C)C)C(C)(C)CCC2)=N\NC(N)=S (stereo not given) | ? | -14%
23 | Cc1ccc(S(=O)(=O)N2CCOCC2)cc1NC(=O)COC(=O)c1ccco1 | -10% | -5%
24 | CCC(C(=O)NC(C)(C)C)N(Cc1ccc(OC)cc1)C(=O)c1snc(C(N)=O)c1N (stereo not given) | -11% | i
25 | NC(=O)c1ncn([C@@H]2O[C@H](CO)[C@@H](O)[C@H]2O)n1 | -4%&0% | -2%
26 | Cc1cc(NC(=O)COC(=O)CCC(=O)c2ccc(F)cc2)no1 | -4% | nt
27 | O=S(=O)(c1cccc(Cl)c1)n1c(/C=C/c2ccccc2Cl)nc2ccccc21 | -18% | i
28 | CCOC(=O)c1cc(-c2ccncc2)nc2c1c(C)nn2-c1ccccn1 | ? | -25%
29 | COc1ccc(CCNC(=O)C(C(=O)c2ccc(F)cc2)n2ccccc2=O)cc1OC (stereo not given) | 3% | -6%
30 | O=C(O)CCC(=O)NCc1cn(-c2ccccc2)nc1-c1cccc(Br)c1 | 0% | -8%
31 | Brc1ccc(N=C(c2ccccc2)c2ccncc2)cc1 | -24% | i
32 | O=C(NCc1ccccc1)c1cccn1-c1nnc(N2CCCC2)s1 | -3% | -11%
33 | CCN1CCN(c2ccc([N+](=O)[O-])cc2C#N)CC1 | 6% | -7%
34 | CCCCCn1c(N2CCN(c3cccc(Cl)c3)CC2)nc2c1c(=O)[nH]c(=O)n2C | -18% | -25%
35 | Cc1cccc(Cn2cc(S(=O)(=O)c3ccccc3)c(=O)c3cc(F)c(N4CCOCC4)cc32)c1 | -10% | -2%
36 | COc1ccccc1N1CCN(C(=O)COc2cc(C)ccc2C)CC1 | -3% | -14%
37 | C[n+]1ccccc1/C=C/c1ccccc1Cl | -25% | -29%
38 | C[C@H](CO)N1C[C@H](C)[C@@H](CN(C)C(=O)Nc2ccc(C(F)(F)F)cc2)Oc2c(NC(=O)Cc3ccccc3)cccc2C1=O | -21% | -8%
39 | CC(C)OCCCNC(=O)CNC(=O)c1ccc(Cl)c(Cl)c1 | 2% | -8%
40 | CCOC(=O)c1cccc(NC(=O)Nc2cc(OC)ccc2OC)c1 | ? | -26%
41 | CC1(C)C(=O)C=CC(=O)C(C)(C)C(=O)C=CC(=O)C(C)(C)C2=CC=C(O2)C(C)(C)C(=O)C=CC1=O | -2% | -10%
42 | CCCc1cc(C(=O)Nc2nccs2)cs1 | -14% | -9%
43 | CCOC(=O)CSc1nc2sc3c(c2c(=O)[nH]1)CCCC3 | -8% | -1%
44 | Cc1ccc(S(=O)(=O)C2(S(=O)(=O)c3ccc(C)cc3)CCCC2)cc1 | -15% | -26%
45 | CCC(C)NC(=O)Cn1cc(S(=O)(=O)N2CCN(c3ccccc3F)CC2)c2ccccc2c1=O (stereo not given) | -10% | -25%
46 | O=S(=O)(c1ccc(Cl)cc1)N1CCN(Cc2ccc(O)c3ncccc23)CC1 | ? | ?
47 | CC1(C)CN(c2ccc(-c3ccnc4ncnn34)cc2)C1=O | -8% | i
48 | OCC(O)C(O)C(O)C(O)C=Nc1ccc(/C=C/c2ccnc3ccccc23)cc1 (stereo not given) | 3% | 12%
49 | CCN(C(=O)COC(=O)c1ccccc1OCc1ccc(Cl)cc1)C1CCS(=O)(=O)C1 (stereo not given) | -9% | i
50 | CCc1nn(CC(=O)Nc2cccc(C)c2C)c(=O)c2cc3sccc3n12 | -3% | 10%
51 | Cc1ccc(CNC(=O)C2=NNC(=O)CC2)cc1 | 3% | i
52 | COc1ccc(N=Cc2c(O)n(-c3cccc(C)n3)c(=O)c3ccccc23)c(OC)c1 | 6% | i
53 | CC12COC3(C(=O)Nc4ccc(Cl)cc4)CC1CCC32C (stereo not given) | -15% | -2%
54 | Cn1ccc(C(=O)OCC(=O)c2ccccc2)n1 | -7% | 1%
55 | COc1ccc(S(=O)(=O)N2CCC(C(=O)Nc3ccccc3N3CCCCC3)CC2)cc1OC | -25% | -11%
56 | CCC(=O)N1c2ccc(S(=O)(=O)CCC(=O)N3CCN(c4ccccc4F)CC3)cc2CC1C (stereo not given) | -6% | i
57 | Cc1ccc(-c2nc3ccccc3[nH]2)cc1NC(=O)c1ccco1 | -9% | -7%
58 | CS(=O)(=O)c1ccc(-c2cccc(NC(=O)c3ccc4c(c3)OCO4)c2)nn1 | ? | -6%
59 | Cc1c(C)c(C)c(C(=O)C2CCN(c3ccc([N+](=O)[O-])cn3)CC2)c(C)c1C | -6% | -11%
60 | CCOC(=O)CN1C=C(c2ccc3ccccc3n2)C(C[N+](=O)[O-])c2ccccc21 (stereo not given) | -5% | nt

# Structural class, the compounds so far containing two or more sulfur atoms
item | Molecule | VACV Venus inh | Vaccinia mCherry
6 | Cc1sc2ncnc(SCC(=O)NC(=O)NCc3ccco3)c2c1C | -11% | -9%
14 | CSc1ncccc1C(=O)NNC(=O)c1ccc(NS(=O)(=O)c2cccs2)cc1 | -15% | i
17 | CC(C)c1ccc(NC(=O)CSc2nc3ccsc3c(=O)n2CCC(=O)O)cc1 | -19% | i
42 | CCCc1cc(C(=O)Nc2nccs2)cs1 | -14% | -9%
43 | CCOC(=O)CSc1nc2sc3c(c2c(=O)[nH]1)CCCC3 | -8% | -1%
44 | Cc1ccc(S(=O)(=O)C2(S(=O)(=O)c3ccc(C)cc3)CCCC2)cc1 | -15% | -26%

# Next structures.
item | Molecule | VACV Venus inh | Vaccinia mCherry
61 | Cc1cccc(NC(=O)C2CCN(S(C)(=O)=O)CC2)c1C | -3% | -18%
62 | Cc1occc1C(=O)N/N=C/C=C\c1ccccc1[N+](=O)[O-] | 0% | -6%
63 | COc1ccc2c(c1)CC/C2=N\NC(=O)c1ccccc1 | 1% | -16%
64 | COC(=O)c1c(NC(=O)c2nc(SCc3cccc(C)c3)ncc2Cl)sc2c1CCCC2 | 6% | -1%
65 | OC[C@@H]1CN(CCN2CCOCC2)C[C@H](n2cnc3c(NCc4ccco4)ncnc32)O1 | 7% | 8%
66 | COc1ccccc1NC(=O)Cn1ncc2c1-c1ccccc1OC2 | -3% | 26%
67 | CCCCNC(=O)N1CCN(C(c2ccccc2)c2ccccc2)CC1 | -5% | -17%
68 | COc1cc(-c2cc(N)n(S(=O)(=O)c3ccc(F)cc3)n2)cc(OC)c1OC | ? | -29%
69 | CCCCn1c(NCCO)nc2ccccc21 | -19% | i
70 | O=C1N[C@@H](Cc2ccccc2)COC(=O)[C@@H](Cc2ccc(F)cc2)C/C=C\C[C@@H]1CC(=O)N(CCO)Cc1ccccc1 | 13µM* | ?
71 | COc1cc(NC(=O)NCCN2CCN(c3ccc(Cl)cc3)CC2)ccc1C | ? | nt
72 | O=S1c2ccccc2Nc2ccccc21 | -7% | ?
73 | CC(=O)N1CCc2c(sc(NC(=O)C3CCN(S(=O)(=O)c4cccs4)CC3)c2C(N)=O)C1 | 0% | -11%
74 | COc1ccc(P2(=O)Nc3ccccc3N2)cc1 | 0% | -15%
75 | O=C(NC(=S)Nc1ccc(S(=O)(=O)Nc2ncccn2)cc1)c1ccc(Br)cc1 | -3% | i
76 | COc1cccc(-c2nnc3sc(-c4ccccn4)nn23)c1 | -16% | -16%
77 | CCOc1ccc2nc(NC(=O)Cn3c(C)csc3=O)sc2c1 | -13% | -26%
78 | C=CCn1nnnc1-c1cc(Cl)cc(Cl)c1 | -7% | -7%
79 | O=C1C(=Cc2ccncc2)CCCc2ccccc21 | -15% | -1%
80 | O=C(NCCc1ccc(Cl)cc1)c1ccc(=O)[nH]c1 | 1% | -9%
81 | Cc1cccc(-n2ccnc2SCC(=O)Nc2cccc3ccccc23)c1C | -4% | -3%
82 | COc1cc(C(=O)NC(CCSC)C(=O)Nc2ccc(N3CCOCC3)cc2)cc(OC)c1OC (stereo not given) | -12% | -22%
83 | COc1cc(/C=C/c2cc[n+](C)cc2)ccc1OCC(=O)Nc1ccccc1 | 5% | -13%
84 | COc1ccc(N2CCN(C(=O)c3ccc(COc4ccc([N+](=O)[O-])cc4)o3)CC2)cc1 | -15% | -4%
85 | Cc1ccc(C(=O)c2oc3ccccc3c2N)cc1 | -23% | -12%
86 | CN(Cc1cnn(C)c1)C(=O)C1CCCCC1C(=O)O (stereo not given) | 1% | -8%
87 | COC(=O)CCC(NC(=O)c1cc(C)oc1C)C(=O)OC (stereo not given) | -4% | nt
88 | O=C1Oc2ccccc2C(=O)/C1=C/c1ccccc1O | 6% | -3%
89 | COc1cccc(NC(=O)N2CCN(C(=O)c3nsc4ccccc34)CC2)c1 | -10% | -9%
90 | CCC(=O)Nc1ccc(C(=O)COC(=O)c2sc(C)nc2C)cc1 | -5% | -3%
91 | NC(=O)CC(NC(=O)Cc1ccc(Cl)cc1)c1ccc(NC2CCCC2)c([N+](=O)[O-])c1 (stereo not given) | -2% | -13%
92 | COc1ccc(S(=O)(=O)c2c(Nc3ccc(C)cc3)sc(C(=O)c3ccc(C)cc3)c2N)cc1 | -13% | i
93 | CCc1nnc(NC(=O)CCC(=O)N2CCN(C3CCCCC3)CC2)s1 | 0% | i
94 | COc1cc(NC(=O)CSc2ncnc3sc4c(c23)CCCC4)c(C(=O)O)cc1OC | -3% | -12%
95 | CC1=NN(c2ccccc2)C(=O)/C1=C\c1ccc(Oc2ccc([N+](=O)[O-])cc2[N+](=O)[O-])cc1 | -11% | -20%
96 | COc1ccc(S(=O)(=O)N2CCOCC2)cc1Cl | -6% | i
97 | C1=C(N2CCOCC2)/C(=C/c2nc3ccccc3[nH]2)CC1 | 4% | nt
98 | CCOC(=O)N1CCC(NC(=O)c2cc(C(=O)Nc3cccc(OC)c3)ccc2CO)CC1 | -23% | i
99 | CC1(C)Cc2c(cnn2-c2ccc(F)cc2)C(NC(=O)CCC(F)(F)F)C1 (stereo not given) | -4% | i
100 | Cc1noc(C)c1COc1ccccc1C(=O)Nc1cccc(S(=O)(=O)N(C)C)c1 | -6% | -13%
101 | COc1cccc(CNC(=O)CCC2CCCN(Cc3cc(Cl)ccc3O)C2)c1 (stereo not given) | -11% | -8%
102 | Brc1ccccc1-c1nnc(CSc2nnnn2-c2ccccc2)o1 | 0% | -2%
103 | CCOC(=O)c1c(C)[nH]c(C(C)=NNC(=O)c2cccs2)c1C | -21% | i
104 | Cc1nc2nncn2c(NCc2ccc(Cl)cc2)c1C | -24% | -28%
105 | C[C@H]1CN=C(N(C)C)N1CCCC1CCCC1 | -16% | ?
106 | CN(C(=O)CCNC(=O)Cn1ccc2ccccc2c1=O)c1ccc(Br)cc1 | -4% | -3%
107 | O=C(NCc1ccccc1)c1ccc2c(c1)sc1nc(-c3ccc(F)cc3)cn12 | -6% | -17%
108 | COc1ccc(CC(=O)N(CC2CCCO2)c2nc3ccccc3s2)cc1 (stereo not given) | -3% | -12%
109 | CN(C)CCN(C(=O)C1CCN(S(=O)(=O)c2cccs2)CC1)c1nc2c(F)cccc2s1 | -12% | -9%
110 | CCc1nc2c(OCc3ccc(C(=O)N(C)C)cc3)cccn2c1N(C)C(=O)Nc1ccccc1OC | -3% | i
111 | COC(=O)C1=C(c2ccc(Cl)c(C(F)(F)F)c2)C[C@@H]2CC[C@H]1N2C(=O)NCC1CC1 | ? | -8%
112 | CCCCCCNC(=O)CSc1nccn1Cc1ccccc1 | -5% | -25%

# Shown with values under each structure: three of the compounds above
# Screens in order – VACV Venus inh	Vaccinia mCherry
103	CCOC(=O)c1c(C)[nH]c(C(C)=NNC(=O)c2cccs2)c1C
 : -21%	i
104	Cc1nc2nncn2c(NCc2ccc(Cl)cc2)c1C
 : -24%	-28%
105	C[C@H]1CN=C(N(C)C)N1CCCC1CCCC1
 : -16%	?
